# StopGo RLuc – FMDV 2A StopGo reporter, Renilla signal; Potency, µM (highest dose often 57.5 µM), inactives show at the highest dose signal change, negative = less light; HEK cells with a luciferase reporter of 2A StopGo recoding; actives 0.32% (n = 120,000); active means well fitted falling curve with a large enough effect; inconclusive means small, poorly fitted or top-dose-only effect; inactive means no such curve, though single readings can be large or run the other way; further: nearly all actives have a fitted effect of over 55% in size; overnight with compound
# StopGo FLuc – lowers the firefly signal of an FMDV 2A StopGo reporter; HEK cells with a luciferase reporter of 2A StopGo recoding; actives 0.23% (n = 120,000); AID 1745856; Potency, µM (titrated, usually from 57.5 µM), without a hit: at the highest dose signal change, negative = less light; active = well fitted falling curve with a large enough effect; inconclusive = small, poorly fitted or top-dose-only effect; inactive = no such curve, though single readings can be large or run the other way; further: nearly all actives have a fitted effect of over 60% in size; overnight with compound
# An asterisk follows results filed as active; u = inconclusive; & = joins results of further samples; [ ] = remark or other dose. On the % scale 0 is the no-effect control and ±100 the full control effect; potency means the concentration at half of the fitted maximal effect.
# A first look, 4 compounds:
structure	StopGo RLuc	StopGo FLuc
CCn1c(=O)c2c(nc(C=Cc3ccc(OC)c(OC)c3)n2C)n(CC)c1=O	10%	5%
Cc1ccc(Nc2c(F)cccc2Cl)c(CC(=O)O)c1	4%	-14%[11.5 µM]
CN(C)CCC[C@@]1(c2ccc(F)cc2)OCc2cc(C#N)ccc21	-3%	-17%[11.5 µM]
CCCCOC(=O)c1ccc(N)cc1	2%	11%[11.5 µM]

# Results (from the top)
structure	StopGo RLuc	StopGo FLuc
CCn1c(=O)c2c(nc(C=Cc3ccc(OC)c(OC)c3)n2C)n(CC)c1=O	10%	5%
Cc1ccc(Nc2c(F)cccc2Cl)c(CC(=O)O)c1	4%	-14%[11.5 µM]
CN(C)CCC[C@@]1(c2ccc(F)cc2)OCc2cc(C#N)ccc21	-3%	-17%[11.5 µM]
CCCCOC(=O)c1ccc(N)cc1	2%	11%[11.5 µM]
Cc1nc2c([nH]1)c(=O)n(C)c(=O)n2Cc1ccco1	-6%	15%[11.5 µM]
Cc1cc(Cl)ccc1NC(=O)Cn1nc(C)c2c(C)n(-c3ccccc3)nc2c1=O	-4%	-15%
O=C(O)c1c(O)c(-c2ccccc2)nc2ccccc12	7%	-6%[11.5 µM]
Cc1c(C(C)C)c(=O)n(-c2ccccc2)n1C	-5%	-17%
C[C@@H]1C[C@H]2[C@@H]3C[C@H](F)C4=CC(=O)C(Cl)=C[C@]4(C)[C@@]3(F)[C@@H](O)C[C@]2(C)[C@@]1(O)C(=O)CO	20%	13%[11.5 µM]
COc1ccc(Cn2c(CCC(=O)Nc3cccc(OC)c3)nc3cccnc32)cc1	1%	-2%
Cc1cc(NC(=O)C2CCN(S(=O)(=O)c3ccc4[nH]c(=O)oc4c3)CC2)ccc1Br	u	-21%
COC(=O)c1ccccc1C(=O)c1ccc(OCCN2CCCCC2)cc1	-4%	-14%[11.5 µM]
C=CC(=O)Nc1cc2c(Nc3ccc(F)c(Cl)c3)ncnc2cc1OCCCN1CCOCC1	-13%	-22%
CCC(C)c1ccc(NC(=O)Cn2cnc3c2c(=O)n(C)c(=O)n3C)cc1 (centres undefined)	-13%	-6%
CCOc1ccccc1NC(=O)CSc1nc2ccccc2c2nc(CCn3cncc3C)nn12	-28%	-30%
COC(c1ccccc1)(c1ccccc1)[C@H](Oc1nc(C)cc(C)n1)C(=O)O	-5%	12%[11.5 µM]
CN1CCC(=C2c3ccccc3CC(=O)c3sccc32)CC1	-18%	-10%[11.5 µM]
CN1CCN(c2c(F)cc3c(=O)c(C(=O)O)cn4c3c2SCC4)CC1	-9%	-17%
CN1CCN(C(=O)C2CCCCC2)CC1	-9%	-17%
Cc1cccc(C)c1NC(=O)c1cc(S(N)(=O)=O)c(Cl)cc1O	3%	27%

# Sorted by SMILES length (falling): 17 of the compounds above
structure	StopGo RLuc	StopGo FLuc
C[C@@H]1C[C@H]2[C@@H]3C[C@H](F)C4=CC(=O)C(Cl)=C[C@]4(C)[C@@]3(F)[C@@H](O)C[C@]2(C)[C@@]1(O)C(=O)CO	20%	13%[11.5 µM]
Cc1cc(NC(=O)C2CCN(S(=O)(=O)c3ccc4[nH]c(=O)oc4c3)CC2)ccc1Br	u	-21%
C=CC(=O)Nc1cc2c(Nc3ccc(F)c(Cl)c3)ncnc2cc1OCCCN1CCOCC1	-13%	-22%
Cc1cc(Cl)ccc1NC(=O)Cn1nc(C)c2c(C)n(-c3ccccc3)nc2c1=O	-4%	-15%
COC(c1ccccc1)(c1ccccc1)[C@H](Oc1nc(C)cc(C)n1)C(=O)O	-5%	12%[11.5 µM]
CCOc1ccccc1NC(=O)CSc1nc2ccccc2c2nc(CCn3cncc3C)nn12	-28%	-30%
CCn1c(=O)c2c(nc(C=Cc3ccc(OC)c(OC)c3)n2C)n(CC)c1=O	10%	5%
CCC(C)c1ccc(NC(=O)Cn2cnc3c2c(=O)n(C)c(=O)n3C)cc1 (centres undefined)	-13%	-6%
CN1CCN(c2c(F)cc3c(=O)c(C(=O)O)cn4c3c2SCC4)CC1	-9%	-17%
Cc1cccc(C)c1NC(=O)c1cc(S(N)(=O)=O)c(Cl)cc1O	3%	27%
COC(=O)c1ccccc1C(=O)c1ccc(OCCN2CCCCC2)cc1	-4%	-14%[11.5 µM]
Cc1nc2c([nH]1)c(=O)n(C)c(=O)n2Cc1ccco1	-6%	15%[11.5 µM]
CN1CCC(=C2c3ccccc3CC(=O)c3sccc32)CC1	-18%	-10%[11.5 µM]
O=C(O)c1c(O)c(-c2ccccc2)nc2ccccc12	7%	-6%[11.5 µM]
Cc1c(C(C)C)c(=O)n(-c2ccccc2)n1C	-5%	-17%
CN1CCN(C(=O)C2CCCCC2)CC1	-9%	-17%
CCCCOC(=O)c1ccc(N)cc1	2%	11%[11.5 µM]

# Next section:
structure	StopGo RLuc	StopGo FLuc
Cc1ccc(Cc2c(C)nc3c(-c4ccccc4)c(C)[nH]n3c2=O)cc1	-7%	-7%
N#C/C(=C1\SCC(c2ccccc2Cl)S1)n1ccnc1 (centres undefined)	2%	-13%[11.5 µM]
CCN1CC(CCN2CCOCC2)C(c2ccccc2)(c2ccccc2)C1=O (centres undefined)	5%	-7%[11.5 µM]
Cc1oncc1C(=O)Nc1ccc(C(F)(F)F)cc1	u	27%
CN1CCN(CCCN2c3ccccc3Sc3ccc(S(=O)(=O)N(C)C)cc32)CC1	72%[activator]	-8%
O=C(NCCN1CCOCC1)c1ccc(Cl)cc1	-3%	-9%[11.5 µM]
O=C(O)CCCCCCCC(=O)O	1%	0%[11.5 µM]
Nc1ccc(S(=O)(=O)NCc2ccccc2)cc1	145%[activator]	6%
c1ccc(CNCCNCc2ccccc2)cc1	11%	1%
Cc1cnc(NS(=O)(=O)c2ccc(N)cc2)nc1	24%	0%[11.5 µM]
CCCCNC(=O)CN1C(=O)CCn2nc(-c3cn(C)c4ccccc34)cc21	5%	7%
Nc1cc(=O)[nH]c(N)n1	-6%	-14%
CCOCCOC(=O)/C=C/c1ccc(OC)cc1	-11%	-3%[11.5 µM]
COc1ccc(C(=O)NCC23CC4CC(CC(C4)C2)C3)cc1	32%[activator]	10%
CN(C)CCOC(=O)C(c1ccccc1)C1(O)CCCC1 (centres undefined)	-5%	-6%[11.5 µM]
CCCN(CCC)C(=O)C(CCC(=O)O)NC(=O)c1ccccc1 (centres undefined)	-7%	-8%
COc1ccc(NC(=O)C2CCCN(c3nnc(C)c4c(C)n(-c5ccccc5)nc34)C2)cc1Cl (centres undefined)	21%	13%
CN1CCC(Nc2ncc3ncnc(Nc4ccc(F)c(Cl)c4)c3n2)CC1	-14%	-15%[11.5 µM]
C[C@@H]1CC(=O)NN=C1c1ccc(NN=C(C#N)C#N)cc1	3%&24%	9%&-1%[11.5 µM]
OCC(O)CN1CCN(c2ccccc2)CC1 (centres undefined)	-14%	-13%
NCCO	-7%[114 µM]	-5%[22.9 µM]
CCOc1ccc(N(CC)C(=O)C(=O)c2c[nH]c3ccccc23)cc1	25%	0%
CN=C(NC#N)Nc1ccc(C2=NNC(=O)CC2C)cc1 (centres undefined)	3%	15%
CN1CCN(c2cc3c(cc2F)c(=O)c(C(=O)O)cn3-c2ccc(F)cc2)CC1	19%	5%
COc1ccc(S(=O)(=O)Nc2nnc(CC(C)C)s2)cc1	150%[activator]	u
OCCOCCN1CCN(C(c2ccccc2)c2ccc(Cl)cc2)CC1 (centres undefined)	-16%	8%[11.5 µM]
Cc1ccc(-n2nc(C(C)(C)C)cc2NC(=O)Nc2ccc(OCCN3CCOCC3)c3ccccc23)cc1	u	-3%
CCOc1c(N2CCOCC2)cnn(C)c1=O	-1%	-9%
CC(=O)O[C@@]12CO[C@@H]1C[C@H](O)[C@@]1(C)C(=O)[C@H](O)C3=C(C)[C@@H](OC(=O)[C@H](O)[C@@H](NC(=O)OC(C)(C)C)c4ccccc4)C[C@@](O)([C@@H](OC(=O)c4ccccc4)[C@H]21)C3(C)C	-5%	-19%
CCN(CC)S(=O)(=O)c1ccc(C(=O)O)cc1	-4%	0%
O=C(Nc1ccc([N+](=O)[O-])cc1)Nc1ccc([N+](=O)[O-])cc1	-12%	-16%
Cc1nc2nc(NC(=O)c3cccc(Cl)c3)[nH]n2c(=O)c1Cc1ccccc1	20%	45%[activator]
CCOC(=O)Nc1ccc(NCc2ccc(F)cc2)nc1N	-12%	-7%[11.5 µM]
CCN(CC)CCOC(=O)C(c1ccccc1)c1ccccc1	-9%	-5%[11.5 µM]
COC(=O)Nc1nc2ccc(C(=O)C3CC3)cc2[nH]1	29%	79%[activator]
COc1cc(C(=O)NC(c2ccccc2Cl)c2cc(Cl)c3cccnc3c2O)cc(OC)c1OC (centres undefined)	-15%	-19%
CN(C)C(=N)N=C(N)N	-5%	-10%[11.5 µM]
COC(=O)Nc1nc2ccc(S(=O)c3ccccc3)cc2[nH]1 (centres undefined)	37%[activator]	56%[activator][11.5 µM]
CCCc1ncc(C(=O)O)s1	-7%	-10%
CCCc1cc(C(N)=S)ccn1	-7%	-17%
CC(C)(C(=O)c1cccnc1)c1cccnc1	-6%	-15%
COc1ccccc1OC(=O)Oc1ccccc1OC	2%	-1%
COc1ccc2c(CNCCc3ccccc3OC)c(C(=O)O)n(Cc3ccc(F)cc3Cl)c2c1	6%	u
O=C1CCc2cc(OCCCCc3nnnn3C3CCCCC3)ccc2N1	7%	-17%
CN(CCOc1ccc(NS(C)(=O)=O)cc1)CCc1ccc(NS(C)(=O)=O)cc1	-5%	-14%[11.5 µM]
NCC12CC3CC(C1)CC(CC(=O)O)(C3)C2	1%	17%
COc1cc(C)nc(-n2nc(C)cc2OC)n1	-7%	1%
CCCCN(CCCC)CC(O)c1cc(Cl)cc2c1-c1ccc(Cl)cc1/C2=C/c1ccc(Cl)cc1 (centres undefined)	-5%	-17%
CC1CCc2c(N3CCC(O)CC3)c(F)cc3c(=O)c(C(=O)O)cn1c23 (centres undefined)	-6%	-11%
O=C(c1ccccc1)c1ccc2n1CCC2C(=O)O (centres undefined)	-3%	31%[11.5 µM]
Nc1ncnc(Nc2ccccc2)n1	0%	19%
COC(=O)/C=C(/C)N	-5%	-14%[11.5 µM]
CN=C(N)NC(=O)Nc1c(C)cccc1C	-4%	-12%
Cc1ccc(C(=O)C(C)CN2CCCCC2)cc1 (centres undefined)	-15%	-19%
CCOC(=O)Nc1ccc2c(c1)N(C(=O)CCN1CCOCC1)c1ccccc1S2	-15%	-19%
COc1cc2[nH]c(=O)[nH]c(=O)c2cc1OC	-7%	-15%
CCCCC(=O)O[C@]1(C(=O)CO)[C@@H](C)C[C@H]2[C@@H]3CCC4=CC(=O)C=C[C@]4(C)[C@@]3(F)[C@@H](O)C[C@@]21C	2%	-8%
CC1(C)Oc2ccc(C#N)cc2[C@@H](N2CCCC2=O)[C@@H]1O	4%	-9%
Cc1ccc(CNC(=O)C2CCN(S(=O)(=O)c3c(C)noc3/C=C/c3ccccc3F)CC2)o1	3%	-11%
CCCC(=O)Nc1ccc(O)c(C(C)=O)c1	-6%	-13%[11.5 µM]

# Next entries follow.
structure	StopGo RLuc	StopGo FLuc
CC(C)(CO)[C@@H](O)C(=O)NCCCO	1%	-6%[11.5 µM]
CCC(=O)O[C@]1(C(=O)COC)[C@@H](C)C[C@H]2[C@@H]3CCC4=CC(=O)C=C[C@]4(C)C3(F)[C@@H](O)C[C@@]21C (some centres undefined)	9%	-1%
C#C[C@]1(O)CC[C@H]2[C@@H]3CCC4=CC(=O)CC[C@@H]4[C@H]3CC[C@@]21CC	-8%	-12%
CC(C)(C)CC(=O)OCC(=O)[C@@]1(O)CC[C@H]2[C@@H]3CCC4=CC(=O)C=C[C@]4(C)[C@H]3[C@@H](O)C[C@@]21C	-2%	-17%
NC(=O)c1ccc([N+](=O)[O-])cc1Cl	-8%	-9%
CCC(C)n1ncn(-c2ccc(N3CCN(c4ccc(OC[C@H]5CO[C@](Cn6cncn6)(c6ccc(Cl)cc6Cl)O5)cc4)CC3)cc2)c1=O (some centres undefined)	1%	-6%
Cc1ccsc1/C=C/C1=NCCCN1C	-4%	2%
CN1C(=O)CC(C)(c2ccccc2)C1=O (centres undefined)	-7%	-4%
CC(C)(C)c1ccc(S(=O)(=O)c2cnc(SCC(=O)Nc3ccc(F)c(Cl)c3)[nH]c2=O)cc1	-2%	-15%
CC[C@]12CCCN3CCc4c(n(c5ccccc45)[C@@](O)(C(=O)OC)C1)[C@@H]32	-12%	-17%
NC(=O)NC(=O)Cc1ccccc1	-6%	-12%
CCC(Cc1c(I)cc(I)c(N)c1I)C(=O)O (centres undefined)	2%	3%[11.5 µM]
COc1cc(C(=O)NCCCCCC(=O)O)cc(OC)c1OC	-11%	-16%[11.5 µM]
CCCCCCCCCCOCC(O)CN (centres undefined)	-10%	4%

# Screens as filed in PubChem BioAssay.

# This is a subset. The share of hits here may be higher or lower than overall.
